KCNQ2 block: KCNQ2 potassium channel inhibitors, primary screen, cell-based, CHO-K1, FluxOR thallium flux, B-score (AID 2156); 20 min; hits give low values; only compounds with negative scores are shown here; some inactives read as strong as hits; B-score at 10 µM; 310,000 tested, 1.1% active; Potassium voltage-gated channel subfamily KQT member 2 (Rattus norvegicus), O88943;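 active = fluorescence ratio B-score at most minus 3 library SDs, with starting brightness B-score within 2 library SDs, cut at about -5.5 in these data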
Target sequence (O88943 whole entry, looked up): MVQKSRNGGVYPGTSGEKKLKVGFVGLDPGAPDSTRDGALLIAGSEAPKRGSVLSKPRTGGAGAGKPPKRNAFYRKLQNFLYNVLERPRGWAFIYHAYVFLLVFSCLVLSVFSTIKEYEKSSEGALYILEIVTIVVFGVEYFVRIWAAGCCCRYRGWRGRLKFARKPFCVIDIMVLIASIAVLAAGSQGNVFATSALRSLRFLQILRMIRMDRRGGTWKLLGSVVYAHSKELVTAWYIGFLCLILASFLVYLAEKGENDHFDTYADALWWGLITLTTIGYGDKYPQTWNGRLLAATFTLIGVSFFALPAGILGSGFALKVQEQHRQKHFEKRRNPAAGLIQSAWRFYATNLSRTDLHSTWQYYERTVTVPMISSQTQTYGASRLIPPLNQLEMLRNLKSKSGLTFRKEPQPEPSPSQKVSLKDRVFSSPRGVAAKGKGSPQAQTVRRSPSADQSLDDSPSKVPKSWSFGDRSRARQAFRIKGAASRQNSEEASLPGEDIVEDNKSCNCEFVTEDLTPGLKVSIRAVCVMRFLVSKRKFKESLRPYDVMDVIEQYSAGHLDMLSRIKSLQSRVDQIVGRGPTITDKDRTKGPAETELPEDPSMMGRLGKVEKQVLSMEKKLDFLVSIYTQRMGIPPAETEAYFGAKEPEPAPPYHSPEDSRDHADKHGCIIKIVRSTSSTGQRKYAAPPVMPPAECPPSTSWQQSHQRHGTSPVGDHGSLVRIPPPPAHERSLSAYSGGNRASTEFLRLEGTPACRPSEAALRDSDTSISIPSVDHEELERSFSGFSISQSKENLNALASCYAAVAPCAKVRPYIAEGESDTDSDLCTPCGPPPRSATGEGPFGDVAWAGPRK
KCNQ2 block baseline: recorded beside KCNQ2 block, whose call it bears; B-score; measured here: initial fluorescence intensity artifact check;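 brightness before thallium and not channel activity; 0 = typical well and far values either way flag optical interference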
Starred values were filed as active, the others as inactive; i = inactive.

SMILES	KCNQ2 block	KCNQ2 block baseline
CC(=O)Oc1ccccc1N(C(C)=O)S(=O)(=O)c1ccc(C)cc1	i	-0.91
O=C(Nc1cccc(-n2cccn2)c1)C1CCCN(Cc2cc3ccccc3[nH]2)C1 (stereo unspecified)	-8.2*	2.5*
Cn1cnnc1SCC(=O)N1N=C2/C(=C/c3ccco3)CCCC2C1c1ccco1 (stereo unspecified)	i	-0.3
CC(NC(=S)Nc1ccc(S(=O)(=O)N2CCOCC2)cc1)C1CC2CCC1C2 (stereo unspecified)	i	-0.21
COc1ccc(NCc2nnc(SCC(=O)Nc3ccc(OC)cc3)n2C)cc1	i	-1.2
COc1cc(/C=C2/CCC/C(=C\c3cc(O)c(OC)c(Cl)c3)C2=O)cc(Cl)c1O	i	-0.43
Clc1ccc(-c2nnc(N3CCOCC3)o2)cc1	i	-3.6
CCOC(=O)c1sc2ncn(/N=C/c3ccc(O)cc3)c(=O)c2c1C	i	0.72
Cn1cnnc1Sc1ccc(C(F)(F)F)cc1[N+](=O)[O-]	i	0.48
O=S(=O)(c1ccccc1)N(Cc1ccccc1)c1ccccn1	i	-0.68
CCOC(=O)c1ccc(/C=C2/C=C(c3ccccc3)N(c3ccc(Cl)c(C(=O)O)c3)C2=O)cc1	i	5.4
COC(=O)[C@@H]1CC[C@H](C)[C@@H](c2ccc(C)cc2)N1C(=O)c1ccc(/C=N/OCC[C@@H]2C=C[C@H](OC(C)=O)[C@@H](COC(C)=O)O2)cc1	i	-0.07
Cc1ccccc1Cn1nc(C)c(NC(=O)C(F)(F)F)c1C	i	-0.08
CC(OC(=O)c1ccc(NS(=O)(=O)c2ccc3[nH]c(=O)[nH]c3c2)cc1)C(=O)Nc1cccc(Cl)c1Cl (stereo unspecified)	i	0.21
CCc1ccc(Cc2cnc(NC(=O)C3=NCCN3)s2)cc1	i	-1.4
COCCN(CC(=O)Nc1ccc(F)cc1)S(=O)(=O)c1ccc(S(=O)(=O)N2CCCC2)cc1	i	0.09
COc1ccc(N=Nc2nc3ccc(Br)cc3n2C)cc1	i	-0.43
Cc1onc(-c2ccccc2)c1C(=O)OCC(=O)N(CC(C)C)c1c(N)n(Cc2ccccc2)c(=O)[nH]c1=O	i	0.23
CCCNC(=O)CCn1c(=S)oc2ccccc21	i	0.94
O=C1CSC(=Nc2ccc(Cl)cc2)N1Cc1ccco1	i	-1.1
Cc1cc(=O)n2nc(N3CCCC(C(=O)NCc4cccc(Br)c4)C3)sc2n1 (stereo unspecified)	i	0.71
CCC(=O)NCCCCNC(=O)CC	i	1.8
COc1ccc(N=C2S/C(=C\c3ccc(OC(C)C(=O)O)c(OC)c3)C(=O)N2CCc2c[nH]c3ccccc23)cc1 (stereo unspecified)	i	-1.3
COc1cccc(-c2nn(-c3ccccc3)cc2C(=O)n2nnc3ccccc32)c1	-6.4*	0.12*
O=C(NCc1ccco1)c1ccc(Cl)cc1[N+](=O)[O-]	i	0.35

Some of the entries so far, bar-delimited:
structure | KCNQ2 block | KCNQ2 block baseline
COc1cccc(-c2nn(-c3ccccc3)cc2C(=O)n2nnc3ccccc32)c1 | -6.4* | 0.12*
O=C(NCc1ccco1)c1ccc(Cl)cc1[N+](=O)[O-] | i | 0.35

The listing picks up, repeating the 7 entries before the break.
SMILES	KCNQ2 block	KCNQ2 block baseline
CCCNC(=O)CCn1c(=S)oc2ccccc21	i	0.94
O=C1CSC(=Nc2ccc(Cl)cc2)N1Cc1ccco1	i	-1.1
Cc1cc(=O)n2nc(N3CCCC(C(=O)NCc4cccc(Br)c4)C3)sc2n1 (stereo unspecified)	i	0.71
CCC(=O)NCCCCNC(=O)CC	i	1.8
COc1ccc(N=C2S/C(=C\c3ccc(OC(C)C(=O)O)c(OC)c3)C(=O)N2CCc2c[nH]c3ccccc23)cc1 (stereo unspecified)	i	-1.3
COc1cccc(-c2nn(-c3ccccc3)cc2C(=O)n2nnc3ccccc32)c1	-6.4*	0.12*
O=C(NCc1ccco1)c1ccc(Cl)cc1[N+](=O)[O-]	i	0.35
O=C1CCCC2=C1C(c1cccs1)n1nc(SCc3ccc(C(=O)O)cc3)nc1N2 (stereo unspecified)	i	-1.4
COc1ccc(N(CC(=O)Nc2ccc(C)cn2)S(=O)(=O)c2c(C)noc2C)cc1	i	2.3
COc1ccc(C(C)=O)cc1CSc1nnc(C)s1	i	-0.06
CN(CC1CCOCC1)C(=O)CC1C(=O)NCCN1Cc1ccc(F)c(F)c1 (stereo unspecified)	i	1.1
Cc1c(C(=O)NN)nn(-c2ccc(F)cc2)c(=O)c1C#N	i	4.5
COc1ccc(CCC(=O)N2c3ccccc3CC2C)cc1 (stereo unspecified)	i	0.58
O=C(NCCCN1CCOCC1)/C(=C/c1cccnc1)NC(=O)c1ccccc1	i	-0.43
COC(=O)COc1ccc(S(=O)(=O)N2CCCCCC2)cc1	i	1.1
Cc1ccc(NC2CCCN(C(=O)c3ccc(-n4ccnc4)cc3)C2)cc1C (stereo unspecified)	i	2.9
Cc1cc(C)c(S(=O)(=O)N(C)c2ccccc2)c(C)c1	-7.5*	-0.61*
Cc1ccc(C(=O)COC(=O)c2ccc(O)cc2)cc1	i	-0.07
CCN(CC)S(=O)(=O)c1ccc(C(=O)N2CCN(c3ncccn3)CC2)cc1	i	0.01
CCNC(=S)NNC(=O)c1cc(-c2cccc(OC)c2)nc2ccccc12	i	-0.38
CC(NC(=O)c1ccc2ccccc2n1)c1ccccc1 (stereo unspecified)	i	-0.22
CN(CC(=O)Nc1ccccc1C(F)(F)F)C(=O)Cc1ccccc1F	i	-2.4
CN(C)C(=O)CNc1n[nH]c(=S)[nH]c1=O	i	0.09
Cc1ccc(Cl)cc1S(=O)(=O)N1CCC(C(=O)NC2CCN(Cc3ccccc3)CC2)CC1	i	-0.11
CCN(CC(=O)NC(c1ccccc1)c1ccccc1)Cc1nc2ccccc2c(=O)[nH]1	i	2.5
O=C(c1ccccc1)N1CCCC(C(=O)N2CCc3ccccc3C2)C1 (stereo unspecified)	i	1.9
Cc1ccc(NC(=O)CN2C(=O)NC3(CCc4ccccc43)C2=O)cc1Cl (stereo unspecified)	i	-0.01
O=C(c1ccccc1)c1nn(-c2ccc(Cl)cc2)c(=O)cc1C(F)(F)F	i	-0.9
Cc1nn(Cc2ccccc2Cl)c(C)c1NC(=O)C1C2CCC(O2)C1C(=O)O (stereo unspecified)	i	-0.55
c1ccc(-c2noc(-c3ccno3)n2)nc1	i	0.47
O=C(c1cnccn1)N(Cc1ccco1)C1(C(=O)NC2CCCCC2)CCCCC1	i	-1.1
C=CCn1c(-c2ccccc2OCC)n[nH]c1=S	i	-0.19
SMILES	KCNQ2 block	KCNQ2 block baseline
O=C(NCc1ccc(F)cc1)c1cc(-c2ccco2)on1	i	0.07
N=C1C(c2nc3ccccc3[nH]2)=C(O)CN1NC(=O)COc1cccc(F)c1	i	-0.59
OCCN1CCN(CCCN2c3ccccc3Sc3ccc(C(F)(F)F)cc32)CC1	i	-1.2
COc1ccc(CNC(=S)NC(C)CCc2ccccc2)cc1 (stereo unspecified)	i	-1.4
COc1ccc(NC(=O)c2cc3ccccc3oc2=O)c(OC)c1	i	0.34
O=C(O)c1ccc(/C=N/Nc2ccc(C(F)(F)F)cn2)cc1	i	-0.58
Cc1ccc(-n2nnnc2SCC(=O)NC2CCCc3ccccc32)cc1 (stereo unspecified)	i	0.67
O=C(NCc1ccco1)/C(=C\c1ccco1)NC(=O)c1ccccc1Cl	i	-0.29
CN(C(=O)c1ccc(COc2ccccc2Br)o1)c1ccccc1	-6.2*	-0.34*
C=CCn1c(N2CCCCCC2)nc2c1c(=O)[nH]c(=O)n2C	i	0.18
CNS(=O)(=O)c1cc(-c2nnc(Nc3ccc(NC(C)=O)cc3)c3ccccc23)ccc1C	i	0.68
CCCCN(C(=O)CSc1n[nH]c(-c2ccc(C)cc2)n1)c1c(N)n(CCCC)c(=O)[nH]c1=O	i	1.1
CCC1(c2ccccc2)NC(=O)N(CC(=O)Nc2ccc(OC)nc2)C1=O (stereo unspecified)	i	25
CN(CC(=O)NCCCN1CCOCC1)S(=O)(=O)c1ccc(Br)cc1	i	0.94
O=C(NCc1ccncc1)C(=O)Nc1nccs1	i	-0.79
O=S(=O)(N1CCCCC1)n1nnc2ccccc21	i	1.1
CCCN1CCC(=O)N([C@H](CN=[N+]=[N-])Cc2ccccc2)CC1	i	1.8
CCCCOC(=O)Nc1ccc(S(=O)(=O)Nn2cnnc2)cc1	i	1.1
Cn1nccc1/C=C(/C#N)S(=O)(=O)c1ccccc1	i	0.55
O=C(NNC(=O)c1ccc(Cl)c(Cl)c1)c1cccnc1	i	0.31
COc1cc(OC)c(NC(=O)c2ccc(Br)o2)cc1Cl	i	-1
CCn1c(=O)n(CC(=O)Nc2ccc(F)cc2)c(=O)c2ccccc21	i	2.5
CCOC(=O)c1ccc(Oc2c(C)oc3cc(OS(C)(=O)=O)ccc3c2=O)cc1	i	0.02
CCN1CC(CN(C)Cc2nc(-c3ccco3)oc2C)CC1=O (stereo unspecified)	i	-1.6
COc1cc(SC)ccc1C(=O)N(Cc1ccccc1)c1ccccn1	i	-0.7
SMILES	KCNQ2 block	KCNQ2 block baseline
CC(=O)OCC(OC(C)=O)C(OC(C)=O)C(OC(C)=O)C(=O)Nc1ccc(C)cc1C (stereo unspecified)	i	-0.04
O=C(/C=C/c1ccccc1)c1ccccc1	i	-0.01
Cc1ccc(C(=O)N/N=C2\CCCc3ccccc32)c(C)c1	i	1.6
CCOCCCNC(=O)/C(C#N)=C/c1ccccc1F	i	-0.68
CCn1c(Cc2ccccc2)nnc1SCC(=O)OC(C)C	i	-1.5
CCCC(=O)NC(c1cccs1)c1cc([N+](=O)[O-])c2cccnc2c1O (stereo unspecified)	i	-0.87
Cc1cc(O)ccc1Nc1nc2ccccc2nc1Nc1ccc(O)cc1C	i	1.1
CCCOc1ccc(-c2c(C(=O)N/N=C/c3ccc(OC)cc3)nnn2-c2nonc2N)cc1	i	-2
COc1cccc(-c2noc(CCCC(=O)NC3CCCC3)n2)c1	i	-0.15
O=C(NCCOc1cccnc1)c1ccc(OC2CCN(Cc3ccccn3)CC2)cc1	i	2.2
O=C(/C=C/c1cccs1)N1CCN(c2ccccc2F)CC1	i	1.8
COC(=O)C1=C(C)NC(=O)/C1=C\c1cc(C)n(-c2c(C)cccc2C)c1C	i	-1.7
Cc1cc(OCC(=O)NC2CCN(Cc3ccccc3)CC2)c2c(C)c(C)c(=O)oc2c1	i	-0.12
CC(NC(=O)c1ccc(NC2=NC3CS(=O)(=O)CC3S2)cc1)c1ccccc1 (stereo unspecified)	i	0.26
COc1cc2ccccc2cc1C(=O)Nc1ccccc1N1CCN(S(C)(=O)=O)CC1	i	-0.79
CC1CCCN(C(C(=O)Nc2ccc3c(c2)OCO3)c2ccccc2)C1 (stereo unspecified)	-5.7*	-1.1*
O=C(N/N=C/C=C\c1ccccc1)c1cnccn1	i	-0.87
O=C(Nc1ccccc1)OCCOc1ccccc1	i	0.12
Cc1ccc(S(=O)(=O)/C(C#N)=C/c2c(N3CCN(C)CC3)nc3c(C)cccn3c2=O)cc1	i	1.6
CCN(CC)CCCNc1cc(C(F)(F)F)c(C#N)c2nc3ccccc3n12	i	4.1
COc1ccc(O)c(C2=Nc3ccccc3N=C(c3ccccc3)C2)c1	i	-0.65
Cc1ccc(F)cc1NC(=S)NCCc1ccccc1	i	-1.8
CN(C(=O)Cn1cc(C#N)c2ccccc21)c1ccccc1	i	-0.46
Cn1ncc(Br)c1C(=O)Nc1ccc(Br)cn1	i	0.21
Cc1ccc(NC(=O)c2ccco2)c([N+](=O)[O-])c1	i	-1

Entries listed so far that have bromine:
SMILES	KCNQ2 block	KCNQ2 block baseline
COc1ccc(N=Nc2nc3ccc(Br)cc3n2C)cc1	i	-0.43
Cc1cc(=O)n2nc(N3CCCC(C(=O)NCc4cccc(Br)c4)C3)sc2n1 (stereo unspecified)	i	0.71
CN(C(=O)c1ccc(COc2ccccc2Br)o1)c1ccccc1	-6.2*	-0.34*
CN(CC(=O)NCCCN1CCOCC1)S(=O)(=O)c1ccc(Br)cc1	i	0.94
COc1cc(OC)c(NC(=O)c2ccc(Br)o2)cc1Cl	i	-1
Cn1ncc(Br)c1C(=O)Nc1ccc(Br)cn1	i	0.21

(more compounds)
SMILES	KCNQ2 block	KCNQ2 block baseline
CN(C)CCCN(C(=O)c1ccc(C(=O)c2ccccc2)cc1)c1nc2ccc(F)cc2s1	i	0.44
Cc1nc(NC(=O)c2ccc(Cl)cc2)nc2cc3c(cc12)OCO3	i	-0.06
O=C(CSCc1ccc(Cl)cc1)NCc1ccccn1	i	-0.92
N#CCNC(=O)C1CC(=O)N(CCc2ccc(F)cc2)C1 (stereo unspecified)	i	2.3
CCOC(=O)N1CCN(S(=O)(=O)c2ccc(C(=O)NNc3nc4c(C)cccc4s3)cc2)CC1	i	0.42
CCOC(=O)CSc1nc2ccsc2c(=O)n1C1CCN(C(=O)OCC)CC1	i	-1.6
O=C1NC2(CCCCCC2)C(=O)N1Cc1ccccc1F	i	-1.1
CNCCCCOc1ccccc1Cc1ccccc1	i	0.25
CC(NC(=O)c1nn(C)c(=O)c2ccccc12)c1ccccc1 (stereo unspecified)	i	-2.6
Cc1ccc2c(c1)nnn2C1CCN(C(=O)c2ccccc2F)CC1	i	-0.61
Cc1cccc(C(C)C)c1NC(=O)C1CCN(S(=O)(=O)c2ccccc2)CC1	i	0.28
Cc1cccc(CC(=O)c2c[nH]c3ccccc23)c1	i	1.5
CCOc1ccccc1NS(=O)(=O)c1ccc2oc(=O)ccc2c1	i	-0.3
COc1ccc(-c2nnc(SC(C)C(=O)Nc3cccc(Cl)c3)o2)cc1 (stereo unspecified)	i	1.6
COc1ccccc1C/C(N)=N/OC(=O)c1cccc([N+](=O)[O-])c1C	i	1.1
Cc1cc(OC(=O)c2ccc(S(=O)(=O)N3CCCC3)cc2)c([N+](=O)[O-])c(=O)[nH]1	i	1.1
O=c1[nH]c2cc3c(cc2cc1CN(CCCO)C(=S)NCc1ccco1)OCO3	i	1.1
CCOc1ccc2nc(NC(=O)CN3CCN(CC)CC3)sc2c1	i	-1.5

Screens as filed in PubChem BioAssay.

This is a subset; count on the stated rates, not on these rows.
